fixLJ activator: activators of Burkholderia fixLJ two-component system; B. multivorans fixK-promoter GFP reporter, 18 h; hits give high values; z-score (test concentration not listed); 29,000 compounds, 0.3% hits; AID 1918990;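 active = replicate mean overnight rise in green fluorescent reporter signal, 3 or more SD over negative controls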;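 also: score is relative to vehicle wells of the plate; 300 nL library stock went into each well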
* = called active by the depositor.

Molecule	fixLJ activator
CCOc1ccc(/C=C/C(=O)Nc2ccc3nc(N(CC)CC)cc(C)c3c2)cc1OC	1.3
CCOC(=O)c1c(-c2ccccc2)oc2ccc(NS(=O)(=O)c3ccccc3)cc12	0.44
O=C1CCCN1CCCC(=O)N1CCOC(CO)C1c1ccccc1 (stereo not drawn)	-0.79
Cc1cc(OCC(=O)NC(Cc2c[nH]c3ccccc23)C(=O)O)ccc1Cl (stereo not drawn)	-3.5
CCN(CCS(=O)(=O)c1ccc(C)cc1)Cc1nnc(C)o1	-2.2
CCc1ccc(NC(=O)CN2C(=O)C(c3ccc(F)cc3)=NC2(C)C)cc1	-3.1
Cc1nn(CC(=O)NCCc2ccc(Cl)cc2)c(=O)c2cc3cc(F)ccc3n12	-1.5
Cc1cc(C)c(NC(=O)C(C)n2nnc3sc4c(c3c2=O)CCCC4)c(C)c1 (stereo not drawn)	-2.7
CC1CCCCN1Cc1c(O)ccc2c(=O)c(-c3ccccc3)coc12 (stereo not drawn)	-3.9
CCOc1ccc(-c2nonc2NC(=O)c2oc3ccc(C)cc3c2C)cc1OCC	-1.5
CCOC(=O)c1nnn(C(CC)C(=O)Nc2ccc(F)cc2)c1C(=O)OCC (stereo not drawn)	-0.05
CCOc1ccccc1C1C(C(N)=O)=C(C)Nc2nc(-c3ccccc3Cl)nn21 (stereo not drawn)	0.49
CCOc1ccc(CNCc2c(C(=O)O)c(C)n(Cc3ccc(F)cc3Cl)c2C)cc1	-0.97
Cc1nn(C)c(C)c1S(=O)(=O)N(CC(=O)Nc1ccc(F)cc1F)c1ccc(C(C)C)cc1	-0.71
CCOc1ncccc1CNC(=O)c1cnc(-c2ccccc2)[nH]c1=O	1.3
Cn1c(=O)c(=O)n(C)c2cc(S(=O)(=O)N3CCCC3C(=O)Nc3ccccc3F)ccc21 (stereo not drawn)	0.62
COc1ccccc1CNC(=O)CN1C(=O)c2cccnc2Oc2ccccc21	-0.75
O=C(Cc1cccs1)NCC1CCN(C(=O)CC2NC(=O)NC2=O)CC1 (stereo not drawn)	-0.72
Cc1ccccc1C(=O)n1nc(-c2cccnc2)nc1NCc1ccccc1	0.42
CC(C)Sc1ncc(Cl)c(C(=O)N(Cc2ccc(F)cc2)C2CCS(=O)(=O)C2)n1 (stereo not drawn)	0.58

The last seven compounds of the section before come first, to join the parts.
Molecule	fixLJ activator
Cc1nn(C)c(C)c1S(=O)(=O)N(CC(=O)Nc1ccc(F)cc1F)c1ccc(C(C)C)cc1	-0.71
CCOc1ncccc1CNC(=O)c1cnc(-c2ccccc2)[nH]c1=O	1.3
Cn1c(=O)c(=O)n(C)c2cc(S(=O)(=O)N3CCCC3C(=O)Nc3ccccc3F)ccc21 (stereo not drawn)	0.62
COc1ccccc1CNC(=O)CN1C(=O)c2cccnc2Oc2ccccc21	-0.75
O=C(Cc1cccs1)NCC1CCN(C(=O)CC2NC(=O)NC2=O)CC1 (stereo not drawn)	-0.72
Cc1ccccc1C(=O)n1nc(-c2cccnc2)nc1NCc1ccccc1	0.42
CC(C)Sc1ncc(Cl)c(C(=O)N(Cc2ccc(F)cc2)C2CCS(=O)(=O)C2)n1 (stereo not drawn)	0.58
O=C(NC1COCC1Cc1ccncc1)c1[nH]ncc1Cl (stereo not drawn)	-0.72
O=C(O)c1ccc(Nc2nc3ccccc3c3nncn23)cc1	-1
COc1ccc(Nc2nnc(-c3ccc(C)c(S(=O)(=O)N4CCOCC4)c3)c3ccccc23)cc1	-1.9
COCCCn1c(=N)c(C(=O)NC2CCCC2)cc2c(=O)n3ccccc3nc21	-0.23
CC(=O)c1ccc(NC(=O)c2cn(-c3ccccc3)nc2-c2ccc(Br)cc2)cc1	0.55
O=C(O)c1c(S(=O)(=O)NCCc2ccccc2)sc2c1CCNC2	-0.45
CC(C)(C)NC(=O)[C@H]1CC[C@H]2[C@@H]3CC[C@H]4NC(=O)C=C[C@]4(C)[C@H]3CC[C@]12C	-1.5
CCc1ccc2oc(-c3ccc(C)c(NC(=O)c4cc([N+](=O)[O-])ccc4N4CCOCC4)c3)nc2c1	-2.1
Fc1cccc(CN2CCn3nc(CNc4cnccn4)cc3C2)c1	-0.21
COc1ccc2ncc3c(-c4ccccc4)nn(-c4ccc(C)c(C)c4)c3c2c1	2.1
Cc1cc(SCC(=O)Nc2nsc(-c3ccc(C(C)(C)C)cc3)n2)nc2ccccc12	-0.25
Cc1ccc2nc(-c3ccc(N4CCOCC4)cc3)c(Nc3ccccc3C)n2c1	0.41
CCOC(=O)c1c(-c2ccc(C)cc2)csc1NC(=O)c1cc(=O)c2ccc(C)cc2o1	-0.92
CN(C)CCc1nnc(NC(=O)c2ccc3cccc(Cl)c3n2)s1	-2.7
COc1cc(NC(=O)Cn2c(=O)n(CC(=O)NCCc3ccc(OC)c(OC)c3)c(=O)c3sccc32)cc(OC)c1	-4.8
COc1cc(C(=O)Nc2ccc3[nH]c(=O)sc3c2)cc(OC)c1OC	0.76
Cc1cccc(N2CCN(C(=O)c3cc4c(=O)n(C)c5ccccc5c4s3)CC2)c1C	-0.34
COc1ccc(NC(=O)c2c(NC(=O)COc3ccccc3)sc3c2CCC(C)C3)cc1 (stereo not drawn)	-0.96
CC(C)c1ccc(NC(=O)CCS(=O)(=O)c2ccc(Br)s2)cc1	-0.41
COc1cccc2c1C1(CCN(C(=O)c3[nH]ncc3Cl)CC1)OCC2	-0.33
COc1ccc2c(c1)c(=O)c(S(=O)(=O)c1ccccc1)cn2CC(=O)Nc1ccc(C)c(Cl)c1	-1.6
COc1ncnc(NS(=O)(=O)c2ccc(N)cc2)c1OC	0.36
O=C(c1ccco1)n1nc(-c2ccc(Cl)cc2)nc1NCc1ccccc1	-1.4
CNC1(C)[C@H]2CC[C@H](C2)C1(C)C (stereo partly drawn)	-0.98
CCOc1ccc(CCCC(=O)N(C)C2C[C@@H]3CNC(=O)C[C@H]3C2)cc1C (stereo partly drawn)	-1.6
COc1ccc(NC(=O)NCc2cc(C)nn2C)c(OC)n1	0.06
Cc1c(Cl)cccc1NC(=O)CCn1cnnn1	-2
CC(=O)NCc1cc2n(n1)CCN(Cc1cc(=O)n3cccc(C)c3n1)C2	-0.54
Cc1sc2c(c1C)c(=O)n(CCc1ccccc1)c(=O)n2Cc1ccccc1Cl	1.6
COc1ccc(NC(=O)c2cc3c(C)nn(-c4ccccc4)c3s2)c(OC)c1	-0.03
CCCCCn1c(C(C)NC(=O)c2ccccc2)nc2ccccc21 (stereo not drawn)	-2.2
Cc1ccc(-c2c(C(=O)N(C)Cc3ccccc3)oc(=O)c3ccccc23)cc1	0.71
CCC(C)NC(=O)c1cc2c(Cl)nc3ccc(C)cc3c2s1 (stereo not drawn)	-0.86
CCOc1ccc(CCNC(=O)Cn2nc(C)n3c(cc4occc43)c2=O)cc1OCC	-0.71
COc1ccccc1OCC(C)Nc1ncccc1C(=O)N1CCCC1 (stereo not drawn)	-0.87
COc1ccc(CCCc2nnc(SCC(=O)Nc3ccccc3F)o2)cc1C	-0.86
CC(C)c1ccc(CNCCSc2nnnn2C)cc1	-0.9
CCc1nc2sc3c(N4CCCCC4)ncnc3c2c2c1CCCC2	1.9
O=C(CN1CCN(c2ncccn2)CC1)NCc1ccc2nonc2c1	-0.33
COc1ccc(OC)c(C2N=C(N)Nc3nc4ccccc4n32)c1 (stereo not drawn)	-2.2
COCCN1CCN(C(=O)Cc2ccccc2F)C2CS(=O)(=O)CC21 (stereo not drawn)	-0.87
CN(CC(=O)Nc1ccc(OC(F)(F)F)cc1)S(=O)(=O)c1ccc2c(c1)CCC(=O)N2	1.5
CCn1cc(-n2ccnc2-c2ccc(OCC(=O)N3CCOCC3)cc2)cn1	-0.41
CC(C)CC(=O)Nc1nc2nc(-c3ccccc3)cc(=O)n2[nH]1	-0.43
CCOc1ccccc1NC(=O)N1CCc2cc(S(=O)(=O)N3CCC(C)CC3)ccc21	-1.5
CC(=O)Nc1ccc(S(=O)(=O)Nc2cc(-c3cn4ccccc4n3)ccc2C)cc1	-0.49
Cc1ccc(Nc2c(-c3ccc(N4CCOCC4)cc3)nc3ncccn23)c(C)c1	-1.9
Cc1ccc(S(=O)(=O)c2nnn(CC(=O)Nc3ccccc3C)c2N)cc1	0.36
CCc1nnc(CNC(=O)c2ccc(Oc3ccccc3)o2)o1	-0.41
O=C(NCCCN1CCN(c2ccccc2F)CC1)c1cc2c(Cl)nc3ccccc3c2s1	-0.3
CN(c1ccccc1)S(=O)(=O)c1ccc(NC(=O)c2nc(S(C)(=O)=O)ncc2Cl)cc1	-0.02
O=C(NCCCN1CCOCC1)c1ccc2c(c1)[nH]c(=O)n2C1CCC(O)CC1 (stereo not drawn)	1.1
CCSc1ncc(Cl)c(C(=O)N2CCN(c3ccc(OC)cc3)CC2)n1	-1.8
COc1cc(C)c(C)cc1S(=O)(=O)NCC1Cc2ccccc2CN1C (stereo not drawn)	-1.8
CCN1C(=O)c2cccc3c(S(=O)(=O)Nc4ccc(O)c(C(=O)O)c4)ccc1c23	0.43
CN(CC(=O)O)c1ncc(CNC2C3CN4CCN(C3)CC2(c2ccccc2)C4)cn1 (stereo not drawn)	0.26
O=C(Nc1cnns1)N(Cc1ccccn1)CC1CCCO1 (stereo not drawn)	0.99
Cc1cc2oc(C(=O)Nc3ccc(S(=O)(=O)N(C)Cc4ccccc4)cc3)cc(=O)c2cc1C	-0.72
Cn1c2ccccc2c2c(C(=O)N3CCN(c4ccc(F)cc4)CC3)cn(C3CCCCC3)c(=O)c21	1.6
COc1ccc(C2N3CC4(C)CN2CC(c2ccccc2)(C3)C4=O)cc1OC (stereo not drawn)	-0.88

Following part.
structure,fixLJ activator
CCCCCn1c(CCCNC(=O)c2ccccc2)nc2ccccc21,-1.5
CCOc1ccc(CC(=O)N2CC(C(=O)O)C3(CCOCC3)C2)cc1 (stereo not drawn),-1.2
O=C(CC1C(=O)N(c2ccc(F)cc2)C(=O)N1Cc1ccc2c(c1)OCO2)Nc1ccc(Cl)cc1 (stereo not drawn),-3.3
C=C(C)Cn1c(SCC(=O)Nc2ccccc2C)nc2sc3c(c2c1=O)CCCC3,-0.41
Cn1c(Cn2ccnc2)nnc1C1CCCN(c2ccc(Cl)cn2)C1 (stereo not drawn),-0.26
Cc1ccc(Cl)cc1NC(=O)Cn1c(=O)n(CCC(=O)N2CCc3ccccc3C2)c(=O)c2ccccc21,0.24
CCN(Cc1ccccc1)C(=O)Cn1c(=O)n(-c2ccc(Cl)cc2)c(=O)c2c(C)c(C)sc21,-0.68
Cc1ccc(S(=O)(=O)NC2(C(F)(F)F)NC(=O)N(CCc3ccccc3)C2=O)cc1 (stereo not drawn),-0.07
CN(C)c1ccc(NC(=O)c2sc3nc4c(cc3c2N)N2CCC4CC2)cc1,-1.4
COc1cc(C2CC(=O)Oc3c2c(=O)[nH]c2ccccc32)cc(OC)c1OC (stereo not drawn),-1
NCc1nc2cccnc2n1Cc1ccccc1Cl,-0.26
CCc1ccc(CNc2ccc3c(c2)ncn3C(C)(C)C)cc1,-3.5
CN(C)c1ccc(NC(=O)Cn2c(SCc3ccc(F)cc3)nc3ccncc32)cc1,-1.9
COc1cccc(-c2nc3c([nH]2)CN(C(=O)C(O)C2CCCCC2)CC3)c1 (stereo not drawn),0.88
CCn1cc(C(=O)NCCc2ccc(Cl)cc2)c(=O)c2cc(S(=O)(=O)N(C)C3CCCCC3)ccc21,-0.72

A different layout for part of the listing above.
CCN(Cc1ccccc1)C(=O)Cn1c(=O)n(-c2ccc(Cl)cc2)c(=O)c2c(C)c(C)sc21
  fixLJ activator = -0.68

Cc1ccc(S(=O)(=O)NC2(C(F)(F)F)NC(=O)N(CCc3ccccc3)C2=O)cc1 (stereo not drawn)
  fixLJ activator = -0.07

CN(C)c1ccc(NC(=O)c2sc3nc4c(cc3c2N)N2CCC4CC2)cc1
  fixLJ activator = -1.4

The listing continues:
structure,fixLJ activator
COc1ccc(C2CC(=O)N(CC(=O)Nc3ccc(C)c(Cl)c3)c3ccccc3S2)cc1OC (stereo not drawn),0.5
Cc1nnc(SCc2nc(-c3ccc(Cl)cc3)no2)n1-c1ccc(F)cc1,-1.3
CCCCOCC(=O)NCc1cc2n(n1)CCCN(C(=O)N(C)C)C2,-0.92
Cc1nnc(NC(=O)CSc2nnc3c(n2)[nH]c2ccccc23)s1,-0.68
COc1cc(OC)c(NC(=O)CCc2c(C)nc3cc(-c4ccccc4OC)nn3c2C)cc1Cl,0.33
COc1ccc(C(=O)c2cn(Cc3ccccc3F)c3cc4c(cc3c2=O)OCO4)cc1,0.74
COc1ccc(NC(=O)CSc2oc(-c3cccs3)nc2S(=O)(=O)c2ccccc2)c(OC)c1,3.7*
COc1ccc(NC(=O)C(NS(=O)(=O)c2cccc3nsnc23)C(C)C)cc1 (stereo not drawn),-0.75
Cc1nc2nc(CNC(=O)c3cccc(F)c3)nn2c(C)c1CCC(=O)Nc1ccc(F)cc1,-0.99
COc1ccc(C(NC(=O)CCC2=NNC(=O)CC2)c2ccncc2)cc1 (stereo not drawn),-0.29
O=C(c1ccc(Cl)cc1)N(Cc1ccco1)Cc1ccco1,0.1
CC(C)n1cnnc1CCNC(=O)CN1CCN(c2ncccn2)CC1,-2.8
O=C(Nc1ccccc1C(F)(F)F)c1cc2nc(-c3ccccc3)cc(-c3ccccc3)n2n1,-0.27
COC(=O)c1cc(NC(=O)CCc2c(C)nc3c(c(C)nn3C(C)(C)C)c2C)cc(C(=O)OC)c1,-0.67
O=C1COC(C(=O)NCC2(O)CCCCC2)C(c2ccccc2Cl)N1 (stereo not drawn),-0.31
COc1cc(OC)c(NC(=O)Cn2cnc3sc(C)c(S(=O)(=O)N4CCC(C)CC4)c3c2=O)cc1Cl,0.03
Cc1ccccc1NC(=O)c1sc2nc3c(cc2c1N)CCCC3,-0.53
COC(=O)c1cc2sc(C)cc2n1Cc1cccc(OC)c1,-0.23
Cc1ccc(S(=O)(=O)N2CCC(O)C(C(=O)O)C2)cc1C (stereo not drawn),0.71
Cc1oc(-c2cccc(Cl)c2)nc1CN1CCC(C(=O)NC(C)c2ccccc2)CC1 (stereo not drawn),-1.1
COc1ccccc1CNC(=O)C(Cc1ccccc1)NS(=O)(=O)c1ccc2c(c1)oc(=O)n2C (stereo not drawn),0.04

The list is partial. The share of hits here may be higher or lower than overall.
